rRNA inh HTS = reduced GFP signal of wild-type E. coli, primary screen, bacterial rRNA inhibitor project, GFP/RFP fluorescence, OD600, single point; E. coli WT GFP vs humanized-ribosome RFP mutants, 24 h; stronger effect = lower value; DMSO median 0, no signal -100; 1.6% of 350,000 active; GFP signal change (wild-type ribosome), % (no concentration beside the values);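 active = significant combined selectivity score with lowered wild-type GFP, culture density cut under 30%, mutant RFP and density less affected; inactive = any of these conditions unmet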; also: one replicate is shown; some compounds called inactive have numbers as strong as hits
rRNA inh HTS OD600 = second read-out of rRNA inh HTS, no call of its own (marks repeat the call); OD600 change, %; measured here: OD600 growth;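 optical density of the mix in the first replicate; 0 = DMSO median and -100 = no signal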
rRNA inh HTS RFP = further read-out of rRNA inh HTS, marked with its call; RFP signal change, %; measured here: RFP humanized mutant strains;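 first replicate; 0 = DMSO median and -100 = no signal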
* hit, by the source's call; & = joins results of further samples.

SMILES | rRNA inh HTS | rRNA inh HTS OD600 | rRNA inh HTS RFP
C[C@@H]1CCCCO[C@@H](CN(C)C(=O)CCCN(C)C)[C@H](C)CN([C@@H](C)CO)C(=O)c2cc(NS(C)(=O)=O)ccc2O1 | 0 | 5 | -4.3
CO[C@H]1CN(C)C(=O)c2cc(NC(C)=O)ccc2OC[C@@H](C)N(C(=O)C2CC2)C[C@@H]1C | -5 | 4 | -2.7
C/C=C/c1cnc2c(c1)C(=O)N([C@H](C)CO)C[C@H](C)[C@H](CN(C)C(=O)C1CCC1)O2 | -2 | 10 | -2.3
CC(C)NC(=O)Nc1cccc2c1O[C@H](CN(C)Cc1ccc(Cl)c(Cl)c1)[C@@H](C)CN([C@@H](C)CO)C2=O | -6 | -4 | 0.9
C[C@@H]1CN([C@H](C)CO)C(=O)c2cccc(NC(=O)C3CCCCC3)c2O[C@H]1CN(C)Cc1ccc(C(F)(F)F)cc1 | 2 | 6 | -5.2
C[C@H](CO)N1C[C@H](C)[C@@H](CN(C)CC2CC2)OCCCC[C@H](C)Oc2ccc(NS(=O)(=O)c3ccc(Cl)cc3)cc2C1=O | -2 | -10 | -0.1
CC=Cc1ccc2n(c1=O)C[C@H]1[C@H](CO)[C@@H](C(=O)N(C)C)N(CCC(F)(F)F)[C@@H]21 (mixture of isomers) | 4 | -2 | -1.1
CC(C)CC#Cc1cnc2c(c1)C(=O)N([C@@H](C)CO)C[C@@H](C)[C@H](CN(C)C(=O)C1CCCCC1)O2 | 1 | -5 | -1.2
CCN(CC(=O)NCc1cccs1)C(=O)c1cccc(S(=O)(=O)Nc2ccc(F)cc2)c1 | -5 | -9 | -4.1
C[C@@H]1CN([C@H](C)CO)C(=O)Cc2cc(NC(=O)Nc3ccc(C(F)(F)F)cc3)ccc2O[C@H]1CN(C)Cc1ccccc1 | 5 | 19 | -4.2
C[C@H]1CN([C@@H](C)CO)C(=O)c2cc(NC(=O)c3ccncc3)ccc2O[C@@H]1CN(C)Cc1ccc2c(c1)OCO2 | 0 | 10 | -0.9
CC1=C(C(=O)N2CCOCC2)CC(CC(=O)NCCCCc2ccccc2)C(=O)N1CCC1=CCCCC1 (stereo unspecified) | -17 | -29 | -0.4
C[C@@H]1CN([C@@H](C)CO)C(=O)c2cc(NC(=O)Cc3ccccc3)ccc2O[C@@H]1CN(C)C(=O)Nc1cccc2ccccc12 | -4 | -6 | -1.6
CCCC(=O)Nc1ccc2c(c1)OC[C@H](C)N(CCC(F)(F)F)C[C@@H](C)[C@@H](OC)CN(C)C2=O | -3 | -6 | -2.7
CC(C)CNC(=O)c1cccc2c(-c3cccnc3)coc12 | -12 | -6 | -1.2
COc1ccc(S(=O)(=O)N(C)C[C@H]2Oc3ccc(NS(=O)(=O)c4cccs4)cc3CC(=O)N([C@@H](C)CO)C[C@@H]2C)cc1 | -5 | -9 | 0.6
COC(=O)C[C@H]1C=C[C@@H](NC(=O)c2ccccc2)[C@H](CO)O1 | 3 | 7 | 0.1
COc1ccccc1-c1cnc2c(c1)C(=O)N([C@H](C)CO)C[C@H](C)[C@@H](CN(C)Cc1ccncc1)O2 | -2 | 6 | 0.8
Cc1cccc(S(=O)(=O)N2C[C@H]3[C@@H](c4ccccc42)[C@@H](CO)N3Cc2cccnc2)c1 | -5 | -1 | 4.3
CN(C)CC(=O)N1CC2(C1)[C@@H](c1ccccc1)[C@@H](CO)N2Cc1cc(F)ccc1F | 5 | 17 | 1.5

Complete entries, quoted from the list:
`CN(C)CC(=O)N1CC2(C1)[C@@H](c1ccccc1)[C@@H](CO)N2Cc1cc(F)ccc1F` across the screens: rRNA inh HTS: 5; rRNA inh HTS OD600: 17; rRNA inh HTS RFP: 1.5
`COc1ccccc1-c1cnc2c(c1)C(=O)N([C@H](C)CO)C[C@H](C)[C@@H](CN(C)Cc1ccncc1)O2` across the screens: rRNA inh HTS: -2; rRNA inh HTS OD600: 6; rRNA inh HTS RFP: 0.8

Carrying on:
SMILES | rRNA inh HTS | rRNA inh HTS OD600 | rRNA inh HTS RFP
C[C@@H]1CCCCO[C@H](CN(C)C(=O)Nc2ccc(C(F)(F)F)cc2)[C@H](C)CN([C@@H](C)CO)C(=O)c2cc(NC(=O)CCC(F)(F)F)ccc2O1 | 4 | 11 | 0.1
C[C@H](CO)N1C[C@H](C)[C@@H](CN(C)S(=O)(=O)c2cn(C)cn2)OCc2cnnn2CCCC1=O | 1&4 | 9&6 | -1.4&-4.8
C[C@H]1CN([C@@H](C)CO)C(=O)c2cc(NC(=O)c3ccncc3)ccc2O[C@@H]1CN(C)Cc1ccc(Oc2ccccc2)cc1 | -1 | 0 | 1.8
CC(C)NC(=O)N(C)C[C@H]1Oc2cc(C3=CCCC3)ccc2S(=O)(=O)N([C@@H](C)CO)C[C@H]1C | -2 | 3 | 0.5
CC(C)C(=O)Nc1ccc2c(c1)C(=O)N(C)[C@@H]1CC[C@@H](CC(=O)O)O[C@H]1CO2 | 3 | -1 | -1.0
CC(C)NC(=O)NCC[C@@H]1CC[C@@H](NC(=O)Nc2ccccc2)[C@@H](CO)O1 | 5 | 6 | -1.4
O=C(C[C@H]1CC[C@@H](NC(=O)Nc2ccc(F)cc2)[C@@H](CO)O1)NCc1cccc(F)c1 | -4 | -1 | -1.6
CCCNC(=O)N1CCC2(CC1)CN(C(C)=O)[C@H](CO)c1c2c2ccc(OC)cc2n1C | -1 | 3 | 1.2
Cc1ccc(S(=O)(=O)Nc2ccc3c(c2)C(=O)N([C@H](C)CO)C[C@H](C)[C@H](CN(C)Cc2ccc4c(c2)OCO4)O3)cc1 | 8 | -5 | 1.2
O=C(NC[C@H]1[C@H](c2ccccc2)[C@H](CO)N1CC1CCCC1)c1ccccc1 | 3 | -4 | -1.8

Sorted by SMILES length (smallest number first): 13 of the compounds above
SMILES | rRNA inh HTS | rRNA inh HTS OD600 | rRNA inh HTS RFP
CC(C)CNC(=O)c1cccc2c(-c3cccnc3)coc12 | -12 | -6 | -1.2
COC(=O)C[C@H]1C=C[C@@H](NC(=O)c2ccccc2)[C@H](CO)O1 | 3 | 7 | 0.1
O=C(NC[C@H]1[C@H](c2ccccc2)[C@H](CO)N1CC1CCCC1)c1ccccc1 | 3 | -4 | -1.8
CCCNC(=O)N1CCC2(CC1)CN(C(C)=O)[C@H](CO)c1c2c2ccc(OC)cc2n1C | -1 | 3 | 1.2
CN(C)CC(=O)N1CC2(C1)[C@@H](c1ccccc1)[C@@H](CO)N2Cc1cc(F)ccc1F | 5 | 17 | 1.5
CC(C)C(=O)Nc1ccc2c(c1)C(=O)N(C)[C@@H]1CC[C@@H](CC(=O)O)O[C@H]1CO2 | 3 | -1 | -1.0
Cc1cccc(S(=O)(=O)N2C[C@H]3[C@@H](c4ccccc42)[C@@H](CO)N3Cc2cccnc2)c1 | -5 | -1 | 4.3
C[C@H](CO)N1C[C@H](C)[C@@H](CN(C)S(=O)(=O)c2cn(C)cn2)OCc2cnnn2CCCC1=O | 1&4 | 9&6 | -1.4&-4.8
CC(C)NC(=O)N(C)C[C@H]1Oc2cc(C3=CCCC3)ccc2S(=O)(=O)N([C@@H](C)CO)C[C@H]1C | -2 | 3 | 0.5
COc1ccccc1-c1cnc2c(c1)C(=O)N([C@H](C)CO)C[C@H](C)[C@@H](CN(C)Cc1ccncc1)O2 | -2 | 6 | 0.8
C[C@H]1CN([C@@H](C)CO)C(=O)c2cc(NC(=O)c3ccncc3)ccc2O[C@@H]1CN(C)Cc1ccc(Oc2ccccc2)cc1 | -1 | 0 | 1.8
Cc1ccc(S(=O)(=O)Nc2ccc3c(c2)C(=O)N([C@H](C)CO)C[C@H](C)[C@H](CN(C)Cc2ccc4c(c2)OCO4)O3)cc1 | 8 | -5 | 1.2
C[C@@H]1CCCCO[C@H](CN(C)C(=O)Nc2ccc(C(F)(F)F)cc2)[C@H](C)CN([C@@H](C)CO)C(=O)c2cc(NC(=O)CCC(F)(F)F)ccc2O1 | 4 | 11 | 0.1

Additional entries follow:
SMILES | rRNA inh HTS | rRNA inh HTS OD600 | rRNA inh HTS RFP
C[C@H](CO)N1C[C@H](C)[C@H](CN(C)S(=O)(=O)c2cn(C)cn2)Oc2ccc(NS(=O)(=O)c3cccs3)cc2CC1=O | 1 | -1 | -2.1
C/C=C/c1cnc2c(c1)C(=O)N([C@@H](C)CO)C[C@H](C)[C@H](CN(C)C(=O)Nc1ccc(OC)cc1)O2 | 1 | 3 | -1.5
CCCS(=O)(=O)NC(=O)C1(C)CCCN(C(=O)c2oc3ccccc3c2C)C1 (stereo unspecified) | 10 | 25 | -0.1
CC(C)C[C@H]1CNC(=S)N1C[C@H]1CCCN1C[C@H](CC(C)C)N1C[C@H](Cc2ccccc2)N(CCc2ccccc2)C1=S | 16 | 12 | 13
O=C([C@H]1[C@H](CO)[C@H]2Cn3c(ccc(C4=CCCC4)c3=O)[C@@H]1N2Cc1nccs1)N1CCCCC1 | 1 | 6 | -0.9
C[C@@H]1CN(C)C(=O)c2cc(N)ccc2O[C@@H]1CN(C)S(C)(=O)=O | 2 | 1 | -1.9
C[C@@H]1CCCCO[C@@H](CN(C)C(=O)NC2CCCCC2)[C@@H](C)CN([C@@H](C)CO)C(=O)c2cc(NC(=O)Nc3ccc(C(F)(F)F)cc3)ccc2O1 | 2 | 14 | -0.8
CNC[C@H]1Oc2ncc(C#CC3CCCC3)cc2C(=O)N([C@@H](C)CO)C[C@H]1C | 4 | 4 | -0.8
CC(C)C(C(=O)NCc1ccccc1)N(C)Cc1ccc(Cl)c(Cl)c1 (stereo unspecified) | -27 | -36 | -6.0
COc1cccc(-c2ccc3c(c2)[C@H]2[C@H](CCN2C(=O)c2ccc(F)cc2)[C@H](CO)N3)c1 | 0 | -1 | 20

High-throughput results as filed in PubChem.

The list is partial, so the mix of outcomes need not match the whole.
